# Sa ugtP lethal: compounds lethal to S. aureus RN4220 ugtP deletion mutant | OD600 growth, 16 h; some inactives read as strong as hits | growth inhibition, % (test concentration not listed) | 330,000 tested, 0.54% active | AID 1259309;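 active = z-score under -3 and OD600 up to 0.15 on both plates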;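 also: plate controls were untreated wells for no effect and antibiotic for full effect; wells of about 80 µL received 100 nL stock; the first replicate is given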
# Mtb hypoxia rep: inhibitors of hypoxia-regulated fluorescent reporter in Mycobacterium tuberculosis. M. tuberculosis hypoxia-regulated fluorescent reporter, fluorescence. fluorescence inhibition, % (test concentration not listed). 300,000 tested, 0.1% active. AID 1159583;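 active = 35 to 45% if threefold the growth effect, above 45% if 1.5-fold the growth effect; inactive = the rest, general growth blockers included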;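 also: wells of about 50 µL received 100 nL stock; 0% = vehicle wells and 100% = reference inhibitor wells; whole bacteria with a GFP reporter of the hypoxia response; strong numbers were not always called active; many hits fall short of the cut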
# Bead autofluor: compound fluorescence in toxin protease inhibitor counterscreen; compound autofluorescence counterscreen, microsphere flow cytometry; stronger effect = higher value; fluorescence intensity (concentration not given with the values); 360,000 tested, 3.1% active; AID 624483;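 active = at least 3 SD above the mean of all compounds, about 16000 in these data; inconclusive = too few beads counted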;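 also: 100 nL of 1 mM stock went into each well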
# PrP 5UTR inh: inhibition of PrP 5' UTR reporter expression; cell-based PrP 5' UTR mRNA reporter, plate reader; inhibition, % (concentration not given with the values); 340,000 tested, 0.35% active;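 active = every replicate at 50% or more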;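 also: 0 = median of the neutral control wells; tested in H4 reporter cells; numbers are from one replicate; inactives centre near -14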
# RN4220 kill: kills Staphylococcus aureus RN4220; AID 1259311; 330,000 tested, 0.33% active; S. aureus RN4220 growth, OD600, 16 h; inhibition, % (concentration not given with the values);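 active = z-score of -3 or lower and OD600 up to 0.18 on both plates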;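 also: plate controls were untreated cells for no effect and reference antibiotic for full effect; stock transfer was 100 nL into about 80 µL; one replicate is shown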
# BJeLR viability: kills HRASV12-expressing BJeLR cells; inhibition, % (concentration not given with the values); 300,000 tested, 0.17% active; BJeLR (HRASV12) viability, CellTiter-Glo ATP luminescence, 48 h; reference of the scale not given here;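 active = replicate mean above 50%; inconclusive = above 50% but judged a plate artefact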;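 also: 50 nL library stock added to about 25 µL; numbers are from one replicate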
# Mtb hypoxia rep growth: further read-out of Mtb hypoxia rep, marked with its call; growth inhibition, %; measured here: M. tuberculosis growth (absorbance);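 0% = vehicle and 100% = reference antibiotic; read after six days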
# An asterisk follows results filed as active; ? = inconclusive; · = not tested or not shown. Random draw from the library (roughly 4% active in at least one column).
SMILES,Sa ugtP lethal,Mtb hypoxia rep,Mtb hypoxia rep growth,Bead autofluor,PrP 5UTR inh,RN4220 kill,BJeLR viability
Cc1ccc(-n2c(C)cc(C(=O)COC(=O)c3ccc[nH]c3=O)c2C)cc1,2.4,3.4,1.9,2509,-56.3,6.8,6.6
O=C(Nn1cnnc1)c1cccc(S(=O)(=O)N2CCOCC2)c1,6.6,0.5,7.1,4583,-29.0,9.6,1.7
CCN(CC)C(=O)[C@H]1C[C@H](CC(=O)NCc2ccco2)C(=O)N2CCc3c([nH]c4ccc(Cl)cc34)[C@]12C,-6.9,-0.8,7.5,4375,-24.3,2.6,·
CC1(C(=O)OCC(=O)N2c3ccccc3Sc3ccccc32)CC1(Cl)Cl (stereo not drawn),23.6,1.3,5.5,1995,-10.9,-2.4,1.0
OC(CNCc1ccc(Cl)c(Cl)c1)c1ccccc1 (stereo not drawn),4.3,13.2,2.6,5325,-9.6,4.6,1.5
Cc1ccc(NS(=O)(=O)c2cccc(C(=O)NCCCN3CCCC3=O)c2)cc1,1.2,4.3,0.0,?,-5.3,3.5,-12.7
O=C(CC(=O)NC1CCCCC1)N/N=C/c1ccc(Cl)cc1,·,·,·,2443,-7.7,·,-0.3
COc1ccc(C(CC(=O)c2ccccc2)S(=O)(=O)c2ccccc2)cc1 (stereo not drawn),1.7,·,·,1971,-116.4,7.4,-25.9
COC(=O)C1=C(c2ccc(OC)c(OC)c2)CC2CCC1N2C(=O)NCCNC(C)=O (stereo not drawn),2.1,1.5,-0.9,·,·,6.3,·
Cc1ccc2c(c1)c1ncnc(N3CCN(c4ccccc4)CC3)c1n2C,-6.6,·,·,2977,-4.8,1.8,·
Cc1c(C(=O)OC(C)C)sc(NC(=O)c2cccnc2)c1C#N,17.6,3.9,7.2,3067,-32.7,41.4,7.8
CCCc1[nH]nc2c1C(C1CCCCC1)C(C#N)=C(N)O2 (stereo not drawn),4.7,15.6,9.9,5190,-12.3,2.4,1.9
CC(C)C(c1nnnn1C1CCCCC1)N1CCOCC1 (stereo not drawn),11.3,2.0,4.5,?,-14.1,7.4,-2.2
COc1ccc(CC(=O)OCN2C(=O)c3ccccc3C2=O)cc1OC,0.2,12.1,-1.0,5891,-16.8,1.1,-11.2
COC(=O)C1=C(C(=O)OC)C2N(Cc3ccccc3)c3ccccc3[C@@]23CC(C(=O)OC)N(C(C)=O)C3=N1 (stereo partly drawn),9.1,14.1,12.1,·,·,6.9,·
CCOC(=O)c1cnc(-n2nc(C)cc2C)nc1NC1CCCC1,·,·,·,3914,-4.5,·,-1.7
CC1(c2ccc3c(c2)OCO3)NC(=O)N(CC(=O)c2ccc[nH]2)C1=O (stereo not drawn),5.6,-3.9,3.9,4878,-15.6,2.1,-5.8
C(=C(c1ccccc1)c1ccccc1)c1ccccn1,33.2,5.1,4.0,3731,-79.4,0.9,2.1
CCN(c1ccc(OC)cc1)S(=O)(=O)N1CCCC(C(=O)NCc2cccc(C)c2)C1 (stereo not drawn),3.4,-1.1,0.0,6078,5.9,-4.7,-3.8
Cc1cnc(NC(=O)CSCc2c(C)noc2C)s1,2.3,5.8,5.7,3441,-29.5,3.7,·
CCN1CCN(CC(=O)N2N=C(c3cccs3)CC2c2ccc(C)cc2)C(=O)C1=O (stereo not drawn),0.1,11.6,3.9,5172,-18.5,10.5,-19.8
CC(C)c1ccc(NC(=O)CN2C(=O)NC3(CCCCCCC3)C2=O)cc1,1.0,5.1,10.3,3575,-35.5,-0.7,·
O=C(NCc1ccncc1)C12CC3CC(CC(Cl)(C3)C1)C2,7.2,-5.6,-2.3,3658,-12.2,0.2,-7.6
COc1ccc(N2CCN(C(=O)CSc3ncnc4c3cnn4-c3ccc(OC)cc3)CC2)cc1,0.9,-2.6,1.0,3241,1.3,5.3,·
O=C(Nc1cnccn1)Nc1ccc(Cl)cc1Cl,·,·,·,1979,-3.7,·,4.3
Cc1ccc(NC(=O)COC(=O)c2ccc3c(c2)NC(=O)C2CCCN32)cc1 (stereo not drawn),-6.3,-4.2,-1.7,?,-21.3,0.9,23.3
O=C(NC1CCCCC1)C(c1cccnc1)N(C(=O)c1csnn1)c1ccccc1 (stereo not drawn),6.1,2.1,-4.8,4185,-8.2,0.1,0.7
COC(=O)C1=C(c2ccc(Cl)c(C(F)(F)F)c2)C[C@@H]2CC[C@H]1N2C(=O)NCCOc1ccccc1Cl,-23.1,4.9,4.3,2962,-21.3,-5.5,·
Cc1cc(SCC(=O)OCC(=O)N2CCCC2=O)c(C)cc1Br,1.5,-5.9,0.0,5184,-3.4,3.4,5.4
CCCN(CC(=O)Nc1ccccc1C)C(=O)c1ccc(-c2ccc([N+](=O)[O-])cc2)o1,-4.0,11.2,3.0,2954,-0.5,3.0,·
CCOC(=O)C1CCN(Cc2coc3ccc(Cl)cc3c2=O)CC1,2.9,3.7,3.2,20396*,-24.4,1.5,-0.7
Cc1ccc(NC2c3ncccc3C(=O)N2Cc2cccs2)cc1 (stereo not drawn),3.4,-0.2,-0.8,2188,-25.8,8.2,-9.4
CCc1c(C)nc(N)n2c(SCC(=O)N3CCCc4ccccc43)nnc12,-0.3,0.3,10.8,11134,-13.2,4.4,6.4
C=CCSc1nnc(NC(=O)c2c(CC)noc2C)s1,4.4,-2.5,-7.4,6373,-25.7,8.2,0.7
CC(C)n1cnc2c(Nc3ccc(C(=O)O)cc3)nc(Cl)nc21,9.2,12.8,6.8,3485,-25.6,5.4,-14.2
O=C(CSc1nc(-c2ccccc2)ns1)N1CCOCC1,1.2,·,·,4369,-95.9,0.6,12.3
CCN(CC)c1ccc2cc(C(N)=O)c(=O)oc2c1,1.3,-7.6,-9.1,7078,-14.9,5.7,15.1
CC(=NNC(=O)Cc1ccc(Br)cc1)c1cccnc1,2.4,12.8,1.0,·,·,-1.3,·
O=C(CN1CCOCC1)NNC(=O)c1ccc(Cl)cc1,1.5,11.5,-1.2,4029,0.1,4.9,·
N#Cc1cnn2ccn(C3OC(CO)C(O)C3O)c12 (stereo not drawn),2.0,12.2,3.6,6233,-3.5,3.4,-4.5

# 5 structures out of the list, arranged by molar mass, descending:
SMILES,Sa ugtP lethal,Mtb hypoxia rep,Mtb hypoxia rep growth,Bead autofluor,PrP 5UTR inh,RN4220 kill,BJeLR viability
COC(=O)C1=C(c2ccc(Cl)c(C(F)(F)F)c2)C[C@@H]2CC[C@H]1N2C(=O)NCCOc1ccccc1Cl,-23.1,4.9,4.3,2962,-21.3,-5.5,·
CCc1c(C)nc(N)n2c(SCC(=O)N3CCCc4ccccc43)nnc12,-0.3,0.3,10.8,11134,-13.2,4.4,6.4
CC(C)n1cnc2c(Nc3ccc(C(=O)O)cc3)nc(Cl)nc21,9.2,12.8,6.8,3485,-25.6,5.4,-14.2
O=C(CN1CCOCC1)NNC(=O)c1ccc(Cl)cc1,1.5,11.5,-1.2,4029,0.1,4.9,·
O=C(Nc1cnccn1)Nc1ccc(Cl)cc1Cl,·,·,·,1979,-3.7,·,4.3

# (continued)
SMILES,Sa ugtP lethal,Mtb hypoxia rep,Mtb hypoxia rep growth,Bead autofluor,PrP 5UTR inh,RN4220 kill,BJeLR viability
Cc1nn(S(=O)(=O)c2ccc(Cl)cc2)c(C)c1Sc1ccc([N+](=O)[O-])cc1,3.5,9.1,-6.2,9960,-17.3,1.7,15.1
CCOc1cc(NC(=S)NC)c(OCC)cc1NC(=O)c1cccs1,8.8,7.8,8.9,5712,1.8,21.5,-9.9
CC(C)C(c1nnnn1Cc1ccccc1)N1CCN(Cc2ccc3c(c2)OCO3)CC1 (stereo not drawn),2.4,·,·,3728,-1.2,3.4,3.6
C/C(=N/NC(=O)CNC(=O)c1ccco1)c1ccc(Cl)cc1,·,·,·,5533,-5.9,·,-6.2
Cc1nn(-c2ccccc2)c(/N=C/c2ccccc2O)c1-c1ccccc1,·,·,·,2100,-68.2,·,1.2
O=C(c1cc(F)ccc1F)C1CCCN(C(=O)CCN2CCCCO2)C1 (stereo not drawn),-2.7,10.7,3.1,4652,-8.3,4.8,-2.1
O=C(Nc1ccccc1N1CCCCC1)c1cc(S(=O)(=O)N2CCOCC2)ccc1F,8.7,-3.8,1.0,4518,-8.8,12.5,·
COc1ccc(C2=CC(=O)OC3(CCCC3)O2)cc1,4.9,10.4,8.5,3323,-20.8,15.9,8.5
Cc1ccc(C)c(CN2C(=O)c3ccccc3S(=O)c3ccc(C(=O)NCCCN4CCCC4)cc32)c1 (stereo not drawn),-6.5,4.7,2.0,6840,-0.2,8.2,10.1
CCc1ccc(Oc2cc(Cl)nc(N)n2)cc1,11.0,6.9,7.9,2229,-62.4,3.4,0.0
COC(=O)c1sccc1NC(=O)CC1C(=O)NCCN1C(=O)c1ccc(C)c(C)c1 (stereo not drawn),-0.8,5.0,5.5,3892,-17.8,0.0,-1.0
Cn1nc(-c2ccc(Cl)cc2)nc2c(=O)n(C)c(=O)nc1-2,100.5*,8.5,5.3,·,-26.6,100.4*,19.3
C/C(=N/NC(=O)CNC(=O)c1ccccn1)c1ccc([N+](=O)[O-])cc1,·,·,·,4537,-7.2,·,-4.1
COc1ccc(-n2nc(C(=O)NCC(=O)NC3CCCCCC3)c3ccccc3c2=O)cc1OC,4.2,1.0,0.1,4546,-15.3,3.8,-5.3
O=C(Nc1ccc(S(=O)(=O)N2CCOCC2)cc1)c1cc(-c2ccccc2O)n[nH]1,5.5,2.9,2.0,4352,·,-9.3,-2.6
CSCCC(C(=O)NCc1cccs1)N1C(=O)c2ccccc2C1=O (stereo not drawn),4.9,-1.4,-0.9,5029,2.8,6.8,7.1
COc1ccc(C2(C(=O)Nc3ccc(S(N)(=O)=O)cc3)CCCC2)cc1,5.6,1.8,0.5,4778,-4.6,3.9,4.7
COCCCNC(=O)CN1C(=O)COc2ccc(S(=O)(=O)N3CCOCC3)cc21,2.2,8.4,8.0,4499,-5.7,-1.2,-5.0
COc1ccc2c(c1)CCC/C2=N\NC(=O)c1ccoc1C,·,·,·,10085,-11.5,·,0.8
COc1ccc(/C=C/C2=CC(C)(C)NC(=S)N2)c(OC)c1,11.9,-4.7,1.1,4355,-40.3,6.1,-8.0
Cc1cc(N2CCCC2=O)cc(C)c1S(=O)(=O)Nc1c(C)nn(C)c1C,1.3,19.5,8.5,4668,-25.1,5.9,-7.2
COc1cccc(C(=O)N(C)c2nnc(-c3ccncc3)s2)c1,-1.1,-2.4,10.4,?,-2.4,-11.6,7.7
Cc1c(NC(=S)NC(=O)CC(C)C)c(=O)n(-c2ccccc2)n1C,10.9,6.9,14.8,4654,-19.9,2.8,2.5
CCN(CC)CCCNC(=O)c1cc2c(=O)n(C)c3ccccc3c2n1C,1.3,·,·,6171,-19.0,0.0,3.7
Cc1ccccc1-n1c(CSC(=N)N)nc2ccccc2c1=O,5.1,9.3,7.8,5054,-17.7,-2.3,-4.6
CCOC(=O)N1CCN(C(=O)c2oc3ccc(S(=O)(=O)N4CCCCCC4)cc3c2C)CC1,1.4,-62.4,13.4,3820,-1.8,1.3,-3.9
COc1ccccc1N1C(=NC(=O)CCC2CCCC2)SC2CS(=O)(=O)CC21 (stereo not drawn),-7.8,6.7,2.4,5039,2.0,3.1,-0.4
O=C(CN1CCCC1)Nc1ccc([N+](=O)[O-])cc1Cl,1.3,-3.1,-0.3,4278,16.0,3.2,5.5
CCCCn1c(N)c(N(CCOC)C(=O)c2ccc(N3C(=O)CCC3=O)cc2)c(=O)[nH]c1=O,5.8,7.8,8.8,?,-26.4,3.5,4.6
COC(=O)c1ccccc1NC(=O)N1c2ccccc2CC1C (stereo not drawn),15.4,-1.3,10.6,20425*,-26.1,-1.7,-11.8
Cc1cccc2sc(NC(=O)c3cc(S(=O)(=O)N(C)C)ccc3N3CCCC3)nc12,5.7,-7.5,18.4,2591,-9.5,3.5,1.3
CC1C(C#N)=C(N)OC2=C1C(=O)CC(C)(C)C2 (stereo not drawn),7.1,3.1,-3.6,6110,-11.7,4.9,-14.0
CC(=O)Nc1ccc(NC(=O)C(C)OC(=O)C2CCN(S(=O)(=O)c3ccc4c(c3)OCCO4)CC2)cc1 (stereo not drawn),5.0,-5.2,0.0,5711,-7.7,0.9,1.3
CCOC(=O)c1ccc(N2C(=O)c3n[nH]c(C)c3C2c2ccccc2)cc1 (stereo not drawn),17.8,5.0,1.1,4262,3.0,0.4,-6.2
CCCCCc1cc(OC)cc2c1C(=O)OC(C)(C)O2,5.5,-4.3,-0.8,3684,3.3,2.7,·
